Screening data as filed in PubChem.
gsp agonist – qHTS for Agonist of gsp, the Etiologic Mutation Responsible for Fibrous Dysplasia/McCune-Albright Syndrome: qHTS; Potency, µM (titrated, usually from 76.9 µM), for inactives: at the top dose activation (cAMP increase), actives largely listed as activators; 340,000 tested, 0.13% active; gsp mutant cells, cAMP HTRF, 30 min; control for the full effect not named in the record; AID 624287, 2012; active = well fitted activation curve with a large enough effect; inconclusive = small, poorly fitted or top-dose-only effect, or another doubt; inactive = no such curve, though single readings can be large or run the other way; cell line not stated here;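 further: phosphodiesterase inhibitor Ro 20-1724 added with compounds to block cAMP breakdown; potency means the concentration at half of the fitted maximal effect; nearly all actives have a fitted effect of over 60% in size; about a fifth of the inactives were tested at one dose only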
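Cells stably selected in G418 were plated at 2000/well, grown 16-24 hr, then given compounds in DMSO with the PDE inhibitor […] (300 uM solution added) for 30 min at 37C; cAMP was read by HTRF.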
D2 ag – Beta-Arrestin HTS for Positive Allosteric Modulators of the Human D2 Dopamine Receptor: Agonists; activation, % (test concentration not listed); 360,000 tested, 0.084% active; DiscoveRx PathHunter D2 beta-arrestin, luminescence, 90 min; 100% = 57 uM dopamine signal; D(2) dopamine receptor (Homo sapiens), P14416; in the data active = activation above about 40%; inconclusive = about 15% to 40%; inactive = below about 15%; further: compound concentration not given in the record; the text of the record calls up to 30% inactive
Target sequence (P14416 whole entry, looked up): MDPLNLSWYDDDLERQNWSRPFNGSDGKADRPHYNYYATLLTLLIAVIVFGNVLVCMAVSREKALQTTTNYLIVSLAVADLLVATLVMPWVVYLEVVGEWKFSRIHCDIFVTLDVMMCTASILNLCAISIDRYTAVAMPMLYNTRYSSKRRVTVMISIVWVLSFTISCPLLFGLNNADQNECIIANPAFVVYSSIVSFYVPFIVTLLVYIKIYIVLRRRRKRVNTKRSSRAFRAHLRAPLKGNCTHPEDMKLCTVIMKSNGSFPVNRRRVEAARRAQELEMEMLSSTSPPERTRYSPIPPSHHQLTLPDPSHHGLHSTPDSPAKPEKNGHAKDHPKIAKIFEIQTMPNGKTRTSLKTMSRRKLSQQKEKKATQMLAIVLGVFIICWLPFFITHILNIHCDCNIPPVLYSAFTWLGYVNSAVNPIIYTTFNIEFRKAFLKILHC
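Agonist mode: compounds alone added to overnight-plated D2 PathHunter cells for 90 min at 37 C, with 57 uM final dopamine (EC100) defining full response. Beta-arrestin recruitment detected by chemiluminescent reagent, read after 1 h at ambient temperature.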
D2 potentiator – Beta-Arrestin HTS for Positive Allosteric Modulators of the Human D2 Dopamine Receptor: Potentiators; D(2) dopamine receptor (Homo sapiens), P14416; DiscoveRx D2 beta-arrestin cells, luminescence, 90 min; 100% = 57 uM dopamine signal; potentiation, % (no concentration beside the values); 360,000 tested, 0.23% active; AID 624464, 2012; active = potentiation of 50% or more; inconclusive = 30% to 50%; inactive = 30% or less;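 further: compound concentration not given in the record; tested on top of an EC20 dose of dopamine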
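PathHunter beta-arrestin assay in DiscoveRx D2 cells. Compounds were added with an EC20 of dopamine (50 nM final) for 90 min at 37 deg C. Luminescence was read 1 h after detection reagent, with 57 uM dopamine as the EC100 control.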
Six1-Eya2 inh – qHTS Assay for Inhibitors of the Six1/Eya2 Interaction; AlphaScreen GST-Six1/His-Eya2 binding, biochemical; hits give low values; control for the full effect not named in the record; 360,000 tested, 0.56% active; activity change, % (concentration not given with the values); in the data active = activity change below about -65%; inconclusive = about -30% to -65%; inactive = above about -30%; further: on the % scale 0 is the no-effect control and ±100 the full control effect
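GST-Six1 + His-Eya2 (5X stock: 250/500 nM); Tris pH 8.0, 300 mM NaCl, 0.05% BSA, 0.02% Tween 20; GSH donor/Ni acceptor beads; 1 h 37 °C dark; AlphaScreen readout.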
gsp antag – qHTS for Antagonists of gsp, the Etiologic Mutation Responsible for Fibrous Dysplasia/McCune-Albright Syndrome: qHTS. gsp-mutant cells, cAMP HTRF, 30 min; control for the full effect not named in the record. AID 624288, 2012. 340,000 tested, 0.4% active. Potency, µM (doses to about 76.9 µM), for the others: top-dose activity change, negative = inhibition, usual class: inhibitors; active = falling curve of any shape with a large fitted effect; inconclusive = falling curve, mostly with a smaller effect; inactive = flat or rising curve; cell line not stated here;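 further: intracellular cAMP measured with PDE inhibitor Ro 20-1724 present during compound exposure; potency means the concentration at half of the fitted maximal effect; on the % scale 0 is the no-effect control and ±100 the full control effect; nearly all actives have a fitted effect of over 65% in size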
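HTRF cAMP measurement after 30 min RT detection following 30 min, 37C compound treatment alongside […] (added as 300 uM solution) in G418-selected cells seeded at 2000/well and grown 16–24 h.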
CtBP-E1A inh – qHTS Assay for Inhibitors of the CtBP/E1A Interaction. AlphaScreen GST-E1A/His-CtBP binding, 1536-well; hits give low values; control for the full effect not named in the record. activity change, % (no concentration beside the values). 340,000 tested, 0.49% active; in the data active means activity change below about -65%; inconclusive means about -30% to -65%; inactive means above about -30%; further: on the % scale 0 is the no-effect control and ±100 the full control effect; compound concentration not given in the record
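Steps: dispense buffer (Tris pH 8.0, NaCl 300 mM, TCEP 1 mM, BSA, Tween 20); add 5X protein mix (GST-E1A, His-CtBP, 125 nM each); pin 23 nL compound; 2 h at 37 °C, dark; add 5X beads (50 ug/mL); 1 h; read.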
An asterisk follows results filed as active; ? = inconclusive; . = not tested or not shown; [ ] = another dose, or the depositor's remark. Random draw from the library (roughly 1.4% active in at least one column).

nr | SMILES | gsp agonist | D2 ag | D2 potentiator
1 | O=C(COC(=O)Cc1ccc(F)cc1)NC1CCS(=O)(=O)C1 (configuration not stated) | -7%[15.4 µM] | 1.6 | 15
2 | CCOC(=O)C1CCN(C(=O)c2cc(CN3C(=O)c4ccccc4C3=O)ccc2OCC)CC1 | 9%[15.4 µM] | 2.2 | -14
3 | O=C(CN1C(=O)COc2ccccc21)Nc1ccc(N2CCOCC2)cc1 | -2% | -2.4 | -9
4 | O=C(CCc1nc2ccccc2c(=O)[nH]1)OCCOc1ccc(Cl)cc1 | 29% | -2.0 | -4
5 | COc1ccc(CNC(=O)Cc2ccc(NC(=O)C3=C(C)OCCS3)cc2)cc1 | 19% | -0.5 | -9
6 | O=C(CN1C(=O)c2ccccc2C1=O)Nc1ccccc1C(=O)NC1CCCCCC1 | -15% | -1.4 | -2
7 | Cc1cc(C)c(NC(=O)CN(C)C(=O)CNC(=O)c2cccs2)c(C)c1 | 5% | 0.7 | -4
8 | Cc1cccc(NC(=O)N2CCN(Cc3ccc(Cl)cc3)CC2)c1 | -26% | -1.3 | -12
9 | COc1ccc(CN2CCN(S(=O)(=O)c3ccccc3)CC2)c(OC)c1OC | -2%[15.4 µM] | -3.2 | -4
10 | O=S(=O)(Nc1ccc(NS(=O)(=O)c2ccccc2)cc1)c1ccccc1 | -42%[inhibitor] | 0.8 | -12
11 | C/C(=N\NC(=O)c1ccc(Br)o1)c1cc2c(cc1NC(=O)CCC(=O)O)OCO2 | -9%[15.4 µM] | -2.6 | -8
12 | Nc1nc2c(c(=O)[nH]1)C(c1ccccc1)C1=C(N2)c2ccccc2C1=O (configuration not stated) | ? | -7.4 | -20

nr | Six1-Eya2 inh | gsp antag | CtBP-E1A inh
1 | 1 | 13% | 10
2 | 5 | -21% | -1
3 | -14 | -6% | -7
4 | 8 | -12% | 0
5 | -5 | 2% | .
6 | -12 | -13% | -13
7 | 0 | 15% | 2
8 | -13 | -7% | -12
9 | 2 | -1% | -2
10 | 3 | . | 2
11 | 3 | 0% | -1
12 | ? | 6% | .

The results go on.
nr | SMILES | gsp agonist | D2 ag | D2 potentiator
13 | CSc1ccccc1OCc1cc(C(=O)NC2CCc3ccccc32)no1 (configuration not stated) | -6% | 0.2 | 0
14 | Cc1ccc(S(=O)(=O)Cn2nnnc2CN2CCCC3(CCCCC3)C2)cc1 | -15% | 0.9 | -7
15 | Cc1c(N)cc(S(=O)(=O)O)cc1NC(=O)c1cccc([N+](=O)[O-])c1 | ? | -5.5 | -7
16 | CCOC(=O)C1CCCN(S(=O)(=O)c2cc3c4c(c2)CCC(=O)N4CCC3)C1 (configuration not stated) | 10% | 2.3 | -10
17 | CC(C)NC(=O)N(C)C[C@H]1OCCCC[C@H](C)Oc2ccc(NS(=O)(=O)c3ccccc3)cc2C(=O)N([C@H](C)CO)C[C@H]1C | -21% | -5.7 | 0
18 | COC(=O)c1sc(S(=O)(=O)N2CCN(CCO)CC2)c(C(=O)OC)c1C | -28% | -5.1 | -6
19 | CCCC(=O)Nc1ccc(Cl)c(NC(=O)CC)c1 | -1% | -3.9 | -22
20 | COc1ccc(N(CC(=O)NN=C2CCN(C)CC2)S(=O)(=O)c2ccc(NC(C)=O)cc2)cc1 | ? | 0.3 | -6
21 | Cc1cc(C)c2cc(CN(Cc3nnnn3C3CCCCC3)CC3CCCO3)c(=O)[nH]c2c1 (configuration not stated) | 1% | -3.0 | -19
22 | COc1ccc(S(=O)(=O)N2CCOCC2)cc1NC(=O)c1ccc2c(c1)OCCO2 | -3%[15.4 µM] | 4.8 | 4
23 | COc1ccc(-c2nnc(SCC(=O)c3ccco3)n2-c2ccccc2)cc1 | 0% | 2.0 | -17
24 | CC1Cc2ccccc2N1CC(=O)NC(c1ccccc1)c1ccccc1 (configuration not stated) | 4%[15.4 µM] | -2.9 | -1

nr | Six1-Eya2 inh | gsp antag | CtBP-E1A inh
13 | -1 | 1% | -12
14 | -2 | -14% | 8
15 | -12 | 11% | -15
16 | 6 | -5% | 2
17 | 8 | . | -17
18 | 4 | 7% | 9
19 | 0 | 5% | 0
20 | -1 | 13% | 6
21 | 9 | -34% | 77
22 | -6 | 0% | 3
23 | -1 | 7% | 5
24 | ? | -4% | -24

The listing continues:
nr | SMILES | gsp agonist | D2 ag | D2 potentiator
25 | CCc1cccc(C)c1NC(=S)N(CCN(C)C)Cc1cccs1 | 1%[15.4 µM] | -2.1 | 1
26 | COC(=O)C1(NC(=O)CNC(=O)OCc2ccccc2)CCCC1 | 1%[15.4 µM] | -0.8 | -7
27 | C/C(CC1(O)/C(=N/O)CCc2nonc21)=N\O (configuration not stated) | -17% | 2.0 | -15
28 | Cc1ccc(-c2nnc3sc(-c4ccncc4)nn23)cc1 | 0% | -1.3 | -3
29 | Cc1ccc(S(=O)(=O)N2CCOCC(=O)NCCOCCNC(=O)COCC2)cc1 | 20% | -1.9 | -7
30 | CC(NC(=O)CNC(=O)c1ccco1)c1ccccc1 (configuration not stated) | 12%[15.4 µM] | -2.3 | -6
31 | COc1ccc(NC(=O)Cn2nnc(C(=O)NCc3cccs3)c2N)cc1Cl | 6% | 1.2 | -9
32 | C=C(C)c1cccc(C(C)(C)NC(=O)N2CCN(CC)CC2)c1 | 4% | -4.8 | -15
33 | Cc1ccccc1Nc1sc(C(=O)Nc2cccc(Cl)c2)c(N)c1C(N)=O | 1%[15.4 µM] | 2.5 | -4
34 | Cc1cc(Br)ccc1NS(=O)(=O)c1c(C)[nH]c(=O)[nH]c1=O | -4%[15.4 µM] | -3.9 | -3
35 | Cc1ccc2nc3c(cc(C(=O)NCc4ccccc4)c(=N)n3CCCn3ccnc3)c(=O)n2c1 | ? | 1.0 | -6
36 | CCN(CC)C(=O)C1CCCN(Cc2nc(-c3cnccn3)no2)C1 (configuration not stated) | 0% | 0.5 | 2

nr | Six1-Eya2 inh | gsp antag | CtBP-E1A inh
25 | 3 | -12% | -3
26 | 2 | 0% | -1
27 | 3 | 13% | 0
28 | -15 | -2% | ?
29 | -2 | -2% | 4
30 | 6 | 6% | -4
31 | 2 | 7% | -3
32 | 0 | 3% | 4
33 | -6 | -4% | -4
34 | 9 | 11% | 11
35 | 23 | -9% | -4
36 | 2 | 6% | 3

(next part)
nr | SMILES | gsp agonist | D2 ag | D2 potentiator
37 | CCCC(=O)OCCn1c(Br)nc2c1c(=O)[nH]c(=O)n2C | -11% | 0.2 | 8
38 | COC(=O)c1sccc1NC(=O)c1ccc(OC)cc1 | 0% | -1.3 | -11
39 | CC(=O)N/C(=C/c1ccc2c(c1)OCO2)C(=O)NCCCO | -13% | 2.0 | 2
40 | CCOCCCNC(=O)C1(O)c2ccccc2NC(=O)N1c1ccc(Cl)cc1 (configuration not stated) | 19% | 3.2 | -6
41 | COc1ccc(NC(=O)CSc2nnc(CNC(=O)c3ccco3)o2)c(OC)c1 | 17% | -1.5 | -14
42 | c1ccc(Nc2cc(Nc3ccccc3)[nH]n2)cc1 | -60%[inhibitor] | -0.7 | 12
43 | O=C(c1ccc2c(c1)OCO2)N1CCN(c2ccccc2)CC1 | 19% | -0.6 | -33
44 | Cc1nn(C)c(C)c1CNC(=O)Nc1cccc(Cl)c1 | 12%[15.4 µM] | -1.8 | -7
45 | CCOC(=O)c1ccc(NC(=O)NC2CCN(CC(=O)NCc3ccc4c(c3)OCO4)CC2)cc1 | 10% | 0.6 | -2
46 | COCCNC(=O)c1ccc(CS(=O)(=O)c2ccc(OC)cc2)o1 | -39% | -2.1 | -2
47 | COC(=O)Nc1nn(-c2ccc(C)cc2)c(=O)c(C#N)c1C | 0% | -2.0 | 7
48 | COc1ccc(CC(=O)OCC(=O)NCc2ccc3c(c2)OCO3)cc1OC | -7%[15.4 µM] | 0.0 | 2

nr | Six1-Eya2 inh | gsp antag | CtBP-E1A inh
37 | 2 | -1% | -14
38 | 13 | 0% | 8
39 | 9 | 6% | 5
40 | 0 | 8% | 4
41 | 4 | -6% | 1
42 | -13 | 0% | 5
43 | -17 | 5% | -3
44 | -6 | 6% | -10
45 | 0 | 4% | -7
46 | 1 | 2% | 9
47 | 4 | 7% | 0
48 | 3 | 1% | 9

Single records, as listed above:
Shown for CC(=O)N/C(=C/c1ccc2c(c1)OCO2)C(=O)NCCCO = gsp agonist = -13%; D2 ag = 2.0; D2 potentiator = 2; Six1-Eya2 inh = 9; gsp antag = 6%; CtBP-E1A inh = 5
Shown for COC(=O)c1sccc1NC(=O)c1ccc(OC)cc1 = gsp agonist = 0%; D2 ag = -1.3; D2 potentiator = -11; Six1-Eya2 inh = 13; gsp antag = 0%; CtBP-E1A inh = 8

(continued)
nr | SMILES | gsp agonist | D2 ag | D2 potentiator
49 | CN1CCN(C(=O)/C(=C/c2ccc(N(C)C)cc2)NC(=O)c2ccccc2)CC1 | ? | -2.8 | -13
50 | CC(Cl)C(=O)Nc1cc(C(F)(F)F)ccc1N1CCOCC1 (configuration not stated) | -3%[15.4 µM] | -2.2 | -7
51 | CCCc1nn(C)c(C(=O)Nc2ccc(C(C)(C)C)cc2)c1Cl | -9%[15.4 µM] | 2.3 | 10
52 | O=S(=O)(Nc1ccccc1)c1ccc2c(c1)CCO2 | 3%[15.4 µM] | -0.1 | 0
53 | CCc1cccc(CC)c1NC(=O)c1cc(CN2C(=O)c3ccccc3C2=O)ccc1OC | -1%[15.4 µM] | 0.2 | 4
54 | CCN(CC)CCN(CC(=O)N(C1CCCCC1)C1CCCCC1)C(=O)c1ccco1 | 10%[15.4 µM] | -1.2 | -21
55 | NC(=O)NC(Cc1ccccc1)C(=O)N1CCN(S(=O)(=O)c2ccc(Cl)cc2)CC1 (configuration not stated) | 7%[15.4 µM] | -7.2 | -26
56 | O=C(CSc1ccc2ccccc2n1)NCCC1=CCCCC1 | 5% | -1.0 | -19
57 | Cc1nnc(NC(=O)CSc2nnc(CCNC(=O)c3ccccc3F)n2C)s1 | -2% | 3.2 | -3

nr | Six1-Eya2 inh | gsp antag | CtBP-E1A inh
49 | -4 | -18% | 1
50 | 8 | -13% | 8
51 | 29 | -10% | 10
52 | 3 | 5% | -4
53 | -1 | -24% | -3
54 | 16 | 9% | -1
55 | 4 | 2% | 7
56 | -2 | -12% | 1
57 | -13 | 4% | -29
